High-throughput results: PubChem, National Center for Advancing Translational Sciences (NCATS)
VACV Venus inh = inhibitors of vaccinia virus (Venus reporter); Vaccinia virus Venus reporter expression, fluorescence; Potency, µM (top dose mostly 36.5 µM), without a hit: at the top dose activity change, negative = inhibition, hits mostly inhibitors; actives 0.46% (n = 330,000); AID 720580; active means well fitted inhibition curve with a large enough effect; inconclusive means small, poorly fitted or top-dose-only effect; inactive means no such curve, though single readings can be large or run the other way; tested in A549 cells; also: nearly all actives have a fitted effect of over 30% in size; inactives centre near -10
Vaccinia mCherry = inhibitors of vaccinia virus infection (mCherry reporter signal). Vaccinia virus mCherry reporter infection, fluorescence; about a quarter of the inactives have no number. actives 0.63% (n = 310,000). Potency, µM (doses to about 36.5 µM), for inactives: at the top dose activity change, negative = inhibition, usual class: inhibitors; active = well fitted inhibition curve with a large enough effect; inconclusive = small, poorly fitted or top-dose-only effect; inactive = no such curve, though single readings can be large or run the other way; tested in A549 cells; also: nearly all actives have a fitted effect of over 35% in size; inactives centre near -10
* = called active by the depositor; i = inactive; ? = inconclusive; · = not tested or not shown; & = joins results of further samples; [ ] = remark or other dose. % is scaled to controls: 0 for no effect and ±100 for the full control effect; potency is read from the fitted curve at half-maximal effect.

structure | Vaccinia mCherry | VACV Venus inh
CN(C)c1ccc(CNc2nc3cc(-c4ccc(F)cc4)sc3c(=O)n2C)cc1 | -1% | -22%
CCOC(=O)CN1CC23C=CC(O2)C(C(=O)N2CCN(c4ccc(F)cc4)CC2)C3C1=O (configuration not stated) | i | 16%
O=C(Cn1cc2c(n1)CCCCC2)N1CCc2ccccc2C1 | -12% | -15%
Cc1cc(C)cc(N2C(=O)N(Cc3cc(=O)n4ccccc4n3)c3ccccc3S2(=O)=O)c1 | -25% | -15%
Cc1nc2ccc(NS(=O)(=O)c3c(C)c(C)cc(C)c3C)cc2s1 | ? | ?
CCOc1c2ccc(C(=O)NC3CCCc4ccccc43)cc2nn1C (configuration not stated) | -7% | -15%
Cc1cc(C)c(NC(=O)C2CCCN2C(=O)NC2CCCCC2)c(C)c1 (configuration not stated) | -9% | -12%
COC(=O)[C@@H]1CCCN1Cc1ccc2c(c1)CN(Cc1ccc(OC)c(C)c1)CCO2 | -7% | 9%

structure | Vaccinia mCherry | VACV Venus inh
Cc1sc(N)c(C(=O)c2ccccc2Cl)c1C | ? | -20%
CC(=O)Nc1cccc(-c2ccnc3c2CC(C)(C(=O)NCc2ccccc2)O3)c1 (configuration not stated) | ? | ?
Cc1ccccc1NC(=S)NC(C)C(c1ccccc1)N1CCN(C)CC1 (configuration not stated) | -11% | 13%
C=CCn1c(CNC(=O)c2cccs2)n[nH]c1=S | i | -18%
Cc1cccc(C)c1NC1=NC(=S)N(c2ccccc2)C12CCOC(C)(C)C2 (configuration not stated) | · | -18%
COc1ccc(C#Cc2cccc(-c3nc(C(=O)N4CCN(C)CC4)cc4c3[C@H](CCO)N(S(=O)C(C)(C)C)C4)c2)cc1OC (some centres not stated) | 11% | 3%
Cc1ccc(S(=O)(=O)N2CC3C(=O)CC(c4ccccc4)N(S(=O)(=O)c4ccc(C)cc4)C3CC2c2cccc(Cl)c2)cc1 (configuration not stated) | ? | -10%
Cc1cccc2c1N(CCCOc1ccc(C(C)(C)C)cc1)C(=O)C2=O | -17% | ?

structure | Vaccinia mCherry | VACV Venus inh
COc1cccc(Cn2cc(-c3cccc(C(F)(F)F)c3)nn2)c1 | -17%&-4% | -14%&-11%
Cc1oc2ncn(CC(C)C)c(=O)c2c1C(=O)N1CCN(c2cccc(C(F)(F)F)c2)CC1 | -12% | -2%
C=CCNC(=O)COC(=O)c1oc2ccccc2c1CSC1CCCCC1 | -12% | 4%
COC(=O)c1cc(-c2cc(OC)ccc2OC)nc2c1c(=O)n(C)c(=O)n2Cc1ccccc1 | -16% | -5%
Cc1cc(C)c2nc(NC(=O)CN3C(=O)NC4(CCCC4)C3=O)sc2c1 | -28% | -23%
CC(C)CN(C(=O)c1ccc(F)cc1F)c1c(N)n(CC(C)C)c(=O)[nH]c1=O | i | -10%
CC1=C(C(=O)OCC2CCCCC2)C(c2ccc(F)cc2F)CC(=O)N1 (configuration not stated) | -15% | -17%
O=C(CN1CCN(S(=O)(=O)c2ccccc2Cl)CC1)NCC1(N2CCOCC2)CCCCC1 | ? | -12%

structure | Vaccinia mCherry | VACV Venus inh
CCCC(=O)N1CCCC1(C)C(=O)Nc1ccc(-n2cncn2)cc1 (configuration not stated) | 52%[activator] | 0%
COc1cc2c(cc1NC(=O)C(C)OC(=O)/C=C/c1ccc(OC(F)F)cc1)oc1ccccc12 (configuration not stated) | -20% | -13%
C[C@@H]1CN(Cc2nc(-c3ccc(Cl)cc3)no2)C[C@H](C)O1 | i | -12%
Cc1ccc(CS(=O)(=O)CCC(=O)NCc2ccccn2)cc1 | · | -13%
COc1ccc(-c2cc(C(=O)NCc3ccc(F)cc3)no2)cc1 | -5% | 5%
CC(C)(C)OC(=O)CC(S(=O)(=O)c1ccccc1)S(=O)(=O)c1ccccc1 | i | 0%
Oc1cc2c(cc1O)C(c1ccccc1)CNCC2 (configuration not stated) | -15%&-13% | -11%&-6%&-12%
CC(=O)/C=C1\OCc2cc(OCc3ccccc3)ccc21 | -9% | -8%

Quoted at random: 7 entries already listed
structure | Vaccinia mCherry | VACV Venus inh
COc1ccc(-c2cc(C(=O)NCc3ccc(F)cc3)no2)cc1 | -5% | 5%
CC(=O)/C=C1\OCc2cc(OCc3ccccc3)ccc21 | -9% | -8%
C[C@@H]1CN(Cc2nc(-c3ccc(Cl)cc3)no2)C[C@H](C)O1 | i | -12%
Cc1ccc(CS(=O)(=O)CCC(=O)NCc2ccccn2)cc1 | · | -13%
Oc1cc2c(cc1O)C(c1ccccc1)CNCC2 (configuration not stated) | -15%&-13% | -11%&-6%&-12%
CC(C)(C)OC(=O)CC(S(=O)(=O)c1ccccc1)S(=O)(=O)c1ccccc1 | i | 0%
COc1cc2c(cc1NC(=O)C(C)OC(=O)/C=C/c1ccc(OC(F)F)cc1)oc1ccccc12 (configuration not stated) | -20% | -13%

Next section.
structure | Vaccinia mCherry | VACV Venus inh
Cc1cccc(Cn2c(SCc3ccc(C(=O)NCc4ccccc4F)cc3)nc3ccncc32)c1 | ? | -22%
CCCCC[C@@H]1C=C(C(=O)O)[C@H](c2ccc(Cl)cc2)N1S(=O)(=O)c1ccc(C)cc1 | -20% | 0%
CN(C)c1ccc(/C=N/NS(=O)(=O)c2ccc(Br)cc2)cc1 | -18% | -24%
CSc1ccc(CCNC(=O)CCc2c(C)nc3c4cccnc4nn3c2C)cc1 | -11%[7.34 µM] | -10%
CCC(C)n1c(SCC(=O)NC(=O)c2cccn2C)nc2ccccc2c1=O (configuration not stated) | -7% | 1%
Cc1ccn2c(=O)c(NC(=O)c3cccs3)c(C)nc2c1 | -5% | -12%
CCn1c(CNC(=O)c2cccc(C)c2)nnc1SCC(=O)Nc1nnc(C)s1 | -13% | 1%
COc1ccc(S(=O)(=O)N2CCC(C(=O)NCC3CC3)CC2)cc1 | i | -12%

structure | Vaccinia mCherry | VACV Venus inh
Cc1cc(C)cc(NC(=O)CSc2nc3ccncc3[nH]2)c1 | -11% | -6%
Cn1nnnc1-c1cc(Br)ccc1NC(=O)c1ccccc1 | ? | ?
O=C(Nc1ccc(Cl)cc1Cl)c1cnn2c1NC(=C1CC1)C=C2C(F)F | -12% | -11%
COC(OC)c1ccnc(-c2ccc(OC(=O)c3ccc(F)cc3)cc2)n1 | i | -6%
CN1CCc2c(sc(NC(=O)CS(=O)(=O)c3ccccc3)c2C(N)=O)C1 | -11% | 3%
O=C(NCc1ccccc1)c1cc(C2CCCCN2S(=O)(=O)c2ccccc2)on1 (configuration not stated) | 28% | -8%
Cc1ccc(OCC(=O)Nc2cccc(O)c2)cc1C | -15% | -15%
CCC(C)(C)NC(=O)c1cc(S(=O)(=O)N2CCCCC2)ccc1N1CCOCC1 | -3% | -5%

structure | Vaccinia mCherry | VACV Venus inh
COc1ccc(-n2nc(C(=O)NCC(=O)Nc3ccc(F)cc3)c3ccccc3c2=O)cc1 | -4% | -24%
COc1ccc(S(=O)(=O)N2CCC(C(=O)NCCC(=O)NCCc3cccc(F)c3)CC2)cc1 | i | -18%
Cc1ccc(-n2nc3c(c2NC(=O)c2ccc(OC(C)C)cc2)CS(=O)C3)cc1 (configuration not stated) | -13% | -5%
COc1cc(C(=O)NCCc2sc(-c3cccc(F)c3)nc2C)cc(OC)c1OC | 34%[activator] | 11%
Cc1cc(Cl)c2oc(C(=O)N(C)CCCCN3CCOCC3)c(C)c2c1 | 7% | -7%
COc1ccc(CC(=O)Oc2ccc(C(C)(C)C)cc2)cc1S(=O)(=O)N1CCOCC1 | -15% | -8%
Cc1ccc(S(=O)(=O)NCCC(=O)OCC(=O)N(Cc2ccccc2)C(C)(C)C)cc1C | -24% | -14%
CS(=O)(=O)c1cccc(C(=O)Nc2cccc(-c3nc4ccccc4[nH]3)c2)c1 | -18% | -17%

structure | Vaccinia mCherry | VACV Venus inh
Fc1ccccc1/C=C1\CCCC2=C1Nc1nnnn1C2c1ccccc1F (configuration not stated) | i | -14%
COC(=O)c1sc(N2CCN(c3ccc(Cl)cc3)CC2)nc1N | -37% | -24%
Cc1ccccc1C(=O)N1CCC(C(=O)Nc2ccc(F)cc2F)CC1 | 0% | -5%
Nc1nc2ncc(C(=O)c3cc(Cl)cc(Cl)c3O)cc2s1 | 28% | -1%
COc1ccccc1N(CC(=O)Nc1ccc2c(c1)OCCO2)S(=O)(=O)c1ccc(C)cc1 | -17% | -19%
O=C(NCCC1CCCCN1S(=O)(=O)c1ccccc1)C(=O)NCc1ccncc1 (configuration not stated) | -8% | -11%
COc1ccc(O)c(C(=O)c2cnc3c(c2)c(C)nn3C)c1 | i | -5%
Cc1ccc(Nc2nc(CSc3nnc(-c4ccncc4)n3-c3ccccc3C)cs2)cc1 | 10µM* | ?

structure | Vaccinia mCherry | VACV Venus inh
Cc1ccc(S(=O)CCNC(=O)Cc2ccccc2)cc1 (configuration not stated) | ? | -13%
COc1ccc(CNC(=O)Cn2c(=O)oc3cc(S(=O)(=O)N4CCC(C)CC4)ccc32)cc1 | -11% | -9%
CCCCN(C)CCCNC(=O)c1cc(-c2cccnc2)nc2ccccc12 | -3% | -10%&-9%
CCCNCc1cc(OCC)c(OCC(N)=O)cc1Br | · | -8%
O=C(NCc1ccccc1Cl)c1cnc2sc(N3CCCCC3)nn2c1=O | -8% | -4%
OC[C@H]1O[C@H](OCCc2ccc(O)cc2)[C@H](O)[C@@H](O)[C@@H]1O | i | -12%
C[C@@H](c1ccccc1)N1C[C@@H](COCc2ccccc2)Oc2cc(N3CC[C@H](N(C)C)C3)ccc2S1(=O)=O | i | -4%
CC1(C)CC(CNCCC(c2ccc(F)cc2)c2ccco2)CCO1 (configuration not stated) | 21% | 2%

structure | Vaccinia mCherry | VACV Venus inh
COc1cc2c(cc1OC)n(Cc1ccc([N+](=O)[O-])cc1)c(=O)n1nc(-c3ccccc3)nc21 | -25% | -28%
N#CC1=C(N)N(c2ncn[nH]2)C2=C(C(=O)CCC2)C1c1ccc(F)cc1 (configuration not stated) | -3% | 5%
O=C(COC(=O)c1ccc(O)cc1O)NC(=O)Cc1ccccc1 | i | 2%
COc1ccc(CCNC(=O)c2cccc(NS(=O)(=O)c3ccccc3F)c2)cc1OC | -6% | -21%
COc1cc(/C=C2/C(=O)ON=C2c2ccccc2)ccc1O | -4% | -7%
C[n+]1cccc(C(=O)[O-])c1 | 24% | -18%&33%
CCCCn1nc(CC(=O)NCCN(CC)CC)c2ccccc2c1=O | 14% | 0%
Cc1c(C(=O)Nc2ccccc2F)sc2ncn(CC(=O)N3CCOCC3)c(=O)c12 | i | -8%

structure | Vaccinia mCherry | VACV Venus inh
O=C(Nc1nnc(C2CC2)s1)C1=NN(C2CCS(=O)(=O)C2)C(=O)CC1 (configuration not stated) | i | 0%
CCCCN(CC)CCCNC(=O)Nc1sc2nc3n(c(=O)c2c1C)CCC(C)CC3 (configuration not stated) | i | -5%
COc1ccc2cc(C3=CC(=O)C[C@H](c4ccc5c(c4)OCO5)C3)ccc2c1 | i | -22%
Cc1cc(NC(=O)COC(=O)Cn2c(C)csc2=O)ccc1Br | -20% | -15%
Cc1cccc(C)c1OCc1cc(C(=O)N2CCCCCCC2)no1 | ? | -20%
CCOc1ccc(C(=O)Nc2ccc(N3CCCC3)cc2)cc1 | · | -11%
CN(Cc1nc(-c2cnccn2)no1)CC(O)c1ccccc1 (configuration not stated) | -13% | -6%
Cc1cc(NS(=O)(=O)c2ccc(NC(=O)/C=C/c3ccccc3)cc2)nc(C)n1 | -2% | -8%

structure | Vaccinia mCherry | VACV Venus inh
COc1cc(C(=O)NCC(c2cccs2)S(=O)(=O)c2cccs2)cc(OC)c1OC (configuration not stated) | -25% | ?
CC(=O)Nc1ccc(S(=O)(=O)N2CCN(Cc3csc(C)n3)CC2)cc1 | i | -5%
CCCCCCCNC(=O)C1(CC2CC(c3ccc(Cl)cc3)=NO2)CCN(C(=O)C2CCCC2)CC1 (configuration not stated) | i | ?
Cc1ccc(-c2ccc(CN3C(C(C)C)C(=O)N(Cc4cn(CC5CCCCC5)nn4)CCS3(=O)=O)cc2)cc1 (configuration not stated) | -10% | ?
Cn1c(=O)c(=O)n(C)c2cc(S(=O)(=O)N3CCCC3C(=O)NCc3cccs3)ccc21 (configuration not stated) | i | -13%
CCOC(=O)C(c1ccccc1)C(Nc1cc(C(F)(F)F)cc(C(F)(F)F)c1)c1ccccn1 (configuration not stated) | -3% | -3%
Cc1cc(C)cc(N(C(=O)c2csnn2)C(C(=O)NC(C)(C)C)c2cccnc2)c1 (configuration not stated) | i | -2%
O=C(O)c1cccc(N2C(=O)CSC2c2ccccc2)c1 (configuration not stated) | -3% | -12%
c1ccc(N=NN2CCOCC2)cc1 | -1% | -9%
O=S(=O)(Nc1nc2ccccc2nc1Nc1ccc2c(c1)OCCO2)c1cccs1 | i | -11%
COc1ccccc1C1CC(c2ccc(Cl)cc2Cl)Nc2nc(N)nn21 (configuration not stated) | -14% | -7%

Quoted from the entries so far for reference:
structure | Vaccinia mCherry | VACV Venus inh
O=C(O)c1cccc(N2C(=O)CSC2c2ccccc2)c1 (configuration not stated) | -3% | -12%
c1ccc(N=NN2CCOCC2)cc1 | -1% | -9%
O=S(=O)(Nc1nc2ccccc2nc1Nc1ccc2c(c1)OCCO2)c1cccs1 | i | -11%
COc1ccccc1C1CC(c2ccc(Cl)cc2Cl)Nc2nc(N)nn21 (configuration not stated) | -14% | -7%
